Kir21 block: inhibitors of mouse Kir2.1 inward-rectifier potassium channel | 310,000 tested, 0.85% active | Inward rectifier potassium channel 2 (Mus musculus), P35561 | HEK293-Kir2.1, FluxOR thallium flux fluorescence; hits give low values | AID 1672, 2009 | B-score at 10 µM;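 active = fluorescence ratio B-score at or below minus 3 SD of library scores, with starting-brightness B-score within 2 SD, cut at about -4.2 in these data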;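 note: channel flux triggered by added potassium and thallium sulfate stimulus; B-score of peak minus minimum fluorescence over baseline after thallium stimulus; more negative B-score means stronger Kir2.1 block with less thallium influx; some compounds called inactive have numbers as strong as hits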
Target sequence (P35561 whole entry, looked up): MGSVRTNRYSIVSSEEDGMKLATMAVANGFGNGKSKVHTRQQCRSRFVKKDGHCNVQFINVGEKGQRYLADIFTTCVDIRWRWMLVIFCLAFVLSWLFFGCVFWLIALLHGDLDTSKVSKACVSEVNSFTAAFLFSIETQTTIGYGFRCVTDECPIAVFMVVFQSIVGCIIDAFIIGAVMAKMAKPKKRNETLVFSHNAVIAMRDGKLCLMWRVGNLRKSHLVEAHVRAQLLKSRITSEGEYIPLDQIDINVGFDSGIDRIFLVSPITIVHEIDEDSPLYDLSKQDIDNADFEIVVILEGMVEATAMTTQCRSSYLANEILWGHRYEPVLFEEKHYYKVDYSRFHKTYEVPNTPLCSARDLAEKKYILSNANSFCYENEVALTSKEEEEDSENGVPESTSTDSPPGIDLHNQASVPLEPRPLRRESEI
* marks the source's active call; other numbers are inactive results; & = joins results of further samples. An excerpt; most or all hits stand in other tables.

Compound	Kir21 block
O=C(N/N=C/c1cccc(O)c1)c1ccc(COc2cccc3cccnc23)cc1	-1.29
Cc1cc2cc(C)c3nnc(SCC(=O)N4CCN(C(=O)c5ccco5)CC4)n3c2cc1C	0.18
COCCN(CCNC(=O)c1ccc(NC2=NC3CS(=O)(=O)CC3S2)cc1)Cc1ccco1 (stereo not given)	1.08
COc1cc2c(c(OC)c1)C(c1cccc(OC)c1OC)CC(=O)N2 (stereo not given)	-1.03
Cc1c(S(=O)(=O)Nc2ccc3c(c2)OCCO3)cnn1C	0.77
CN1CCC(OC(=O)COc2ccc(Cl)cc2Cl)CC1	-2.06
COc1cccc(C2C3=C(CCCC3=O)NC3=C2C(=O)c2ccccc23)c1 (stereo not given)	0.06
CC1(C)Cc2c(sc(/N=C/N3CCOCC3)c2C#N)C(C)(C)N1	0.14
CC(=O)c1c(C)oc2ccc(NS(=O)(=O)c3ccc(C(=O)O)cc3)cc12	-0.4
C=CCSC1=N/C(=C\c2cccnc2)C(=O)N1c1ccc(OC)cc1	-2.31
CCCN(CCC)C(=O)c1cn(C)c2ccc(S(=O)(=O)N3CCCC3)cc2c1=O	0.02
NC12CC3CC(C1)CC(CC(=O)O)(C3)C2	0.64
COc1ccc(-c2nnc(SCC#N)o2)cc1	1.27
S=c1ccc2ccccc2[nH]1	0.02
CCCCN1C(=O)CC(N2CCOCC2)C1=O (stereo not given)	0.71
O=C(CCNc1ccc(F)cc1)c1cc2ccccc2o1	-0.16
CCOC(=O)CCSc1nnc(-c2cccnc2)n1-c1ccccc1OC	1.33
O=C(O)/C=C\C(=O)Nc1ccc(OCc2ccccc2)cc1	1.95
COc1ccc(NC(=O)c2ccc(NCCCN3CCOCC3)c([N+](=O)[O-])c2)cc1	2.29
CCOC(=O)c1c(NC(=O)CSc2nnc(-c3cccnc3)o2)sc(C)c1C	-0.64
CCNC(=O)CN(c1ccc(Cl)cc1)S(=O)(=O)c1ccccc1	-0.98
CCc1nc2sc3ccccc3c(=O)c2c(=O)n1Cc1ccco1	0.44
CCOC(=O)c1c(NC(=O)COC(=O)c2ccc(O)cc2)sc(C(=O)N(C)C)c1C	-2.02
CN1CCc2ccccc2C1C1CCNCC1 (stereo not given)	0.74
CCOc1ccc(NC(=O)c2ccc3c(=O)n4c(nc3c2)CCCCC4)cc1	2.67
C[C@@H]1C[C@H](O)c2cc(Cl)ccc2N1	-1.57
Cc1onc(-c2ccccc2)c1C(=O)c1c[nH]c(C(=O)NCc2ccccn2)c1	0.11
CC(=O)Nc1ccc(S(=O)(=O)NC2(C(F)(F)F)NC(=O)N(C3CCCCC3)C2=O)cc1 (stereo not given)	1.1
O=C(NNC(=O)c1nn(-c2ccc(F)cc2)ccc1=O)c1ccc(C(F)(F)F)cc1	1.02
Cc1ccc(CNC(=O)CSCc2ccc(F)cc2)cc1	-0.59
CCOC(=O)C(=CNc1ccc(O)c(C(=O)OC)c1)C(=O)OCC	-0.11
COC(C(=O)N/N=C(\C)CC(=O)Nc1ccc(N(C)C)cc1)c1ccccc1 (stereo not given)	1.18
CCOC(=O)/C(C#N)=C/Nc1cc(C(C)(C)C)sc1C(C)=O	1.51
Cc1cc(=O)nc2c3ccccc3n(CC(=O)NCCCN3CCOCC3)n12	-1.05
O=[N+]([O-])c1ccccc1N/N=C1\CC2CC=CC12 (stereo not given)	-0.52
O=C(C/C=N\O)Nc1ccc(Oc2ccccc2)cc1	0.6
COc1cc2c(cc1NC(=O)c1ccccc1F)CCCC2	-0.26
O=C(CCc1nnc2ccc(N3CCCC3)nn12)Nc1ccc(F)cc1F	-0.09
CCN(c1ccccc1)C1(O)C(=O)c2ccccc2C1=O	0.02
Nc1nonc1-n1nnc(C(=O)N/N=C/c2cccc(Cl)c2)c1CN1CCCCCC1	1.42
O=c1nc(/C=C/c2cc([N+](=O)[O-])ccc2Cl)cc(C(F)(F)F)[nH]1	-3.83
Cc1nc2ccccc2nc(C)c1=NOCc1ccc(Cl)cc1Cl	0.45
O=C(/C=C/c1ccco1)NCC(=O)N/N=C/c1ccc([N+](=O)[O-])cc1	0.8
Clc1cccc(CN2CCSCC2)c1	-0.6
CC(=O)Nc1ccc(S(=O)(=O)Oc2cccc(N3C(=O)C4CCCCC4C3=O)c2)cc1 (stereo not given)	-1.47
O=C1C2C3C=CC(C3)C2C(=O)N1c1ccc(S(=O)(=O)Nc2nccs2)cc1 (stereo not given)	-0.12
NS(=O)(=O)c1ccc(Nc2nc(-c3cccnc3)cs2)cc1	0.57
CSc1ccccc1OCc1cc(C(=O)N2CCN(Cc3nccn3C)CC2)no1	-0.58
O=C(O)c1ccc(CNCc2cccc(Oc3ccccc3)c2)cc1	-0.45
O=C(O)c1ccc(NCc2cccnc2)c([N+](=O)[O-])c1	2.47
O=S(=O)(Nc1ccc2nc(-c3ccco3)[nH]c2c1)c1ccccc1	-0.1
COC(=O)c1ccc(COC(=O)c2ccc(-n3cnnn3)cc2)o1	0.75
CCCNC(=O)c1onc(CS(=O)(=O)c2cccc(OC)c2)c1C(=O)NCCC	-1.6
CCCCc1c(C)[nH]c(=S)[nH]c1=O	-0.86
Cn1nc(C(F)(F)F)c(-c2ccccc2)c1NC(=O)CSCC(=O)O	-0.41
Cc1ccc(NC(=O)N2CCCC2C(=O)Nc2c(C)cc(C)cc2C)cc1 (stereo not given)	-2.55
COc1ccc(S(=O)(=O)N(CC(=O)Nc2ccccc2C(=O)N2CCOCC2)c2ccc(F)cc2)cc1	0.17
O=C(NC1CCCCCC1)C1CCN(S(=O)(=O)c2ccccc2)CC1	-0.34
COc1ccc(NCC(=O)N/N=C(\C)c2cc3ccccc3o2)cc1	0.01
CC(C)CNC(=O)COC(=O)c1ccc(F)cc1Cl	0.78

More compounds:
Compound	Kir21 block
CC(=O)Oc1ccc2ccccc2c1C(NC(=O)C(C)C)c1cccc([N+](=O)[O-])c1 (stereo not given)	0.35
O=C(C1CCN(S(=O)(=O)N2CCCC2)CC1)N1CCCCC1	1.17
C/C(CC1(O)C(=O)N(C)c2ccccc21)=N\O (stereo not given)	-0.04
Nn1c(=O)[nH]c2c([nH]c3ccccc32)c1=O	0.66
CCOc1ccc(S(=O)(=O)N2Cc3ccccc3CC2C(=O)O)cc1 (stereo not given)	-0.2
O=C(Cc1ccccc1)N1CCC(c2nc(-c3ccc(F)cc3)no2)CC1	-0.76
CCC(=O)N1CCc2cc(S(=O)(=O)NC(C(=O)Nc3cccc(C)n3)C(C)C)ccc21 (stereo not given)	-0.02
CC1C(=O)Nc2ccccc2N1C(=O)c1c(F)cccc1F (stereo not given)	0.69
O=C(CSC1=NCCS1)Nc1ccc2ccccc2c1	-1.1
O=c1c2c(nc3cc(-c4cccc(Cl)c4)[nH]n13)CCCC2	0.08
CC(=O)Nc1ccc(NC(=O)CSc2nnc(-c3ccccc3)n2Cc2ccc3c(c2)OCO3)cc1	2.42
CCOc1cc(CNCCSc2nnnn2C)cc(Br)c1OCc1ccc(F)cc1	-2.48
Cc1ccc([N+](=O)[O-])c(NC2OC(CO)C(O)C2O)c1 (stereo not given)	0
CCNc1nc(ON=C(C)C)nc(N(C)C)n1	0
O=[N+]([O-])c1ccc(-c2nnc3cccc(Cl)n23)cc1	-0.37
COc1ccc(CC(=O)NCc2nnc(SCC(=O)c3ccc(OC)cc3)n2C)cc1	-0.56
CCC(=O)Nc1ccc(Cl)c(NC(=S)NC(=O)c2ccco2)c1	-0.1
CCOc1ccc(C(=O)/C=C/Nc2ccc(S(=O)(=O)N=C(N)N)cc2)cc1	-0.88
CCOc1ccc(NC(=O)C/C(C)=N/NC(=O)COc2ccc(Br)cc2C)cc1	-0.93
C=CCn1c(-c2csc3c2CCC(C)C3)n[nH]c1=S (stereo not given)	0.66
COc1cc(C2C3=C(CC(C)(C)CC3=O)N(C)C3=C2C(=O)CC(C)(C)C3)cc(Br)c1O	0.96
COC(=O)c1ccc(C23CC4(C2)[C@H](CN(Cc2cccnc2)[C@@H]4c2ccccc2)C3c2ccccc2)cc1 (stereo not given in full)	-0.53
O=C(Nc1nccs1)C1CCN(S(=O)(=O)c2ccc(Cl)c(C(F)(F)F)c2)CC1	1.09
CC(=O)Nc1ccc(C(=O)OCc2ccc(F)cc2Cl)cc1	-1.29
COc1ccc2cc(CN(CC3CCCO3)C(=O)Nc3ccccc3OC)c(=O)[nH]c2c1 (stereo not given)	-0.9
COc1ccc2[nH]c(=O)c(CN(C(=O)COc3ccccc3)C(C)C)cc2c1	0.81
CC(OC(=O)CN1C(=O)NC2(CCCC2)C1=O)C(=O)c1ccc(C(C)(C)C)cc1 (stereo not given)	0.86
CC(C)C(NS(=O)(=O)c1cccc2nsnc12)C(=O)NCCC1=CCCCC1 (stereo not given)	0
Cc1cc2nccc(-c3ccco3)n2n1	0.6
Cc1cnc(C(=O)Nc2ccc(C(=O)N3CCCCC3)cc2)cn1	-1.62
CCCCC(C)n1[nH]c(=O)cc1N (stereo not given)	-2.86
COc1ccc(-c2cn3cc(Cl)ccc3n2)cc1OC	-0.64
O=C1C(Cc2ccccc2)Nc2ncnc(N3CCN(c4ccccc4)CC3)c2N1Cc1ccccc1 (stereo not given)	0.55
CC(C)NS(=O)(=O)c1ccc(OCC(=O)N(C)Cc2ccccc2)cc1	0.74
CN1/C(=C\C(=O)c2cccs2)Sc2ccccc21	0.89
COc1ccc(N2CCN(C(CNC(=O)c3ccco3)c3ccco3)CC2)cc1 (stereo not given)	-0.3
CC(C)NC(=O)c1ccc(COc2cc(Cl)ccc2Cl)o1	-0.89
O=C(CN1C(=O)c2ccc([N+](=O)[O-])cc2C1=O)Nc1nccs1	1.84
O=C(Nc1cccc(C(F)(F)F)c1)c1cccnn1	0.69
CCCC(=O)Nc1ccc(NC(=O)CCc2ccccc2)cn1	1.19
CCCCNC(=S)NNC(=O)c1cccnc1	-1.24
CCOC(=O)CSc1nnc(Cc2ccccc2)n1Cc1ccco1	-1
CCNc1nc(Oc2ccc(=O)n(-c3ccccc3)n2)nc(N(C)C)n1	-0.19
NC(=O)N1CCN(C(=O)c2ccco2)CC1	0.03
Cc1nn(-c2ccccc2)c(N)c1C(c1ccccc1)c1c(C)nn(-c2ccccc2)c1N	-1.52
O=C(C1=C[C@@H](c2coc3ccccc3c2=O)C[C@@H](OCCCCO)O1)N1CCN(Cc2ccccc2)CC1	-0.25
Cn1c(=O)c2c(nc(Br)n2C/C=N/NC(N)=S)n(C)c1=O	0.6
C=CCn1c(=NC(=O)C2CCCCC2)sc2cc(NC(C)=O)ccc21	-0.52
COC(=O)c1ccc(-c2nc3cc(N)ccc3o2)cc1	0.3
O=C(CCc1ccccc1)N1CCN(CCO)CC1	1.37
CC(NC(=O)CCc1c[nH]c2ccccc12)c1ccccc1 (stereo not given)	0.1
Cc1nnc(N2C(=O)C(=O)/C(=C(/O)c3ccc4c(c3)OCCO4)C2c2ccc(F)cc2)s1 (stereo not given)	-0.07
CC(/C=C\c1cccnc1)=C/C(=O)O	-0.83&0.01
Cc1nc2ccccn2c1/C(O)=C1\C(=O)C(=O)N(CCN2CCOCC2)C1c1cccnc1 (stereo not given)	0.23
O=c1[nH]c2ccccc2c2ccccc12	-1.28
CCc1nc2ccc(C(=O)NCCc3ccco3)cc2nc1CC	-0.48
Cc1ccc(C(=O)NC(=S)Nc2ccc(N3CCOCC3)cc2)c(C)c1	0.07
CC(=O)c1ccc2noc(-c3ccc(Cl)cc3)c2c1	-1.71
COc1ccc(CN2CC(=O)N(c3ccc(C)cc3)C2=S)cc1OC	0.19
Cc1cc(C)n2c(nc3ccccc32)c1C(=O)NN	0.43

6 structures already listed, sorted by SMILES length, descending:
Compound	Kir21 block
O=C(C1=C[C@@H](c2coc3ccccc3c2=O)C[C@@H](OCCCCO)O1)N1CCN(Cc2ccccc2)CC1	-0.25
Cc1nnc(N2C(=O)C(=O)/C(=C(/O)c3ccc4c(c3)OCCO4)C2c2ccc(F)cc2)s1 (stereo not given)	-0.07
Cc1ccc(C(=O)NC(=S)Nc2ccc(N3CCOCC3)cc2)c(C)c1	0.07
COc1ccc(CN2CC(=O)N(c3ccc(C)cc3)C2=S)cc1OC	0.19
CC(NC(=O)CCc1c[nH]c2ccccc12)c1ccccc1 (stereo not given)	0.1
Cc1cc(C)n2c(nc3ccccc32)c1C(=O)NN	0.43

Following part:
Compound	Kir21 block
Cc1cc(C)n2c(SCC(=O)Nc3cc(C)on3)nnc2n1	2.58
COc1ccc(N2CC(NC(=O)N3CCc4ccccc43)CC2=O)cc1OC (stereo not given)	0.62
CCC(C)Sc1nc2c([nH]c3ccccc32)c(=O)n1C (stereo not given)	-0.56
COc1ccc(N/N=C(/C#N)S(=O)(=O)C(C)(C)C)cc1	-3.15
Cc1nc(NC(=O)C2CC2)sc1C(=O)Nc1ccc(Br)cc1	-0.03
CC(C)C(=O)N1CCN(c2ccc(NC(=O)c3cccs3)cc2)CC1	-2.21
CC1=CC(C)(C)N2C(=O)C3(N=C(N)NC(Nc4ccccc4)=N3)c3cc(C)cc1c32 (stereo not given)	-2.12
NS(=O)(=O)c1ccc(NC(=O)N2c3ccccc3Sc3ccccc32)cc1	-0.02
Cn1c(N)c(C(=O)c2ccc(F)cc2F)c(=O)n(C)c1=O	-2.55
Cc1ccc(S(=O)(=O)N(C)C)cc1NC(=O)CN1C(=O)NC2(CCCCCC2)C1=O	-1.48
C/C(=C/C#N)Nc1ccc(C)cc1	0.69
C=CCn1c(-c2ccccc2)nc(=S)c2c1CCCC2	-0.1

Source: PubChem
